Compound activity (PubChem)
Mtb growth = Mycobacterium tuberculosis H37Rv growth inhibition, putative kinase inhibitor library, confirmatory dose response (AID 2842); one-dose inhibition, % at 10 µg/mL; IC90 in µg/mL for titrated hits; 24,000 compounds, 5.2% hits; M. tuberculosis H37Rv growth inhibition; higher % means a stronger effect; some inactives read as strong as hits;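 active = confirmed in a dose series; inconclusive = mostly over 85% at the one dose but not retested; inactive = below 85% or not confirmed; about a fifth of its hits are not listed in these tables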;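 also: bacteria incubated one week before Alamar blue readout; 0% = bacteria only wells and 100% = bacteria with high antibiotic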
* = called active by the depositor; ? = inconclusive. Only part of the results is shown; rates above refer to the full screens.

Start of the listing, in advance (four entries):
SMILES,Mtb growth
COc1cccc2sc(NCc3ccccc3)nc12,12%
CC1=C(C(=O)OCc2ccccc2)C(c2ccccc2I)C2=C(CC(C)(C)CC2=O)N1 (stereo not drawn),14%
Cc1onc(-c2ccccc2Cl)c1C(=O)N1CCN(c2ccc(N3CCOCC3)nn2)CC1,-6%
COc1c(Sc2ccc([N+](=O)[O-])cc2)c(C)nn1-c1ccccc1,78%

All compounds of this part, repeating the preview:
SMILES,Mtb growth
COc1cccc2sc(NCc3ccccc3)nc12,12%
CC1=C(C(=O)OCc2ccccc2)C(c2ccccc2I)C2=C(CC(C)(C)CC2=O)N1 (stereo not drawn),14%
Cc1onc(-c2ccccc2Cl)c1C(=O)N1CCN(c2ccc(N3CCOCC3)nn2)CC1,-6%
COc1c(Sc2ccc([N+](=O)[O-])cc2)c(C)nn1-c1ccccc1,78%
COc1ccc(-n2c(=O)[nH]c3c(C(N)=O)nc(-c4ccc(F)cc4)nc32)cc1,0%
COc1cccc(NC(=O)CSc2nnc3ccccn23)c1,-15%
Cn1c(=O)c2c(ncn2CC(=O)c2ccc([N+](=O)[O-])cc2)n(C)c1=O,-16%
Nc1nc(SCC(=O)Nc2ccc3c(c2)OCCO3)[nH]c(=O)c1NC(=O)c1ccco1,-8%
CC(=O)c1sc(NC(=O)c2ccc3ccccc3c2)nc1C,2%
COc1cccc(C2CC(c3ccc(NS(C)(=O)=O)cc3)=NN2C(=O)c2ccco2)c1OC (stereo not drawn),14%
CCOC(=O)C1CCN(C(c2ccc(C)cc2)c2sc3ncnn3c2O)CC1 (stereo not drawn),1%
Cc1ccc(C)c2[nH]c(=O)c(CCNC(=O)c3c(F)cccc3Cl)cc12,-3%
CCN1CCN(c2nc3c(c(=O)n(C)c(=O)n3C)n2CCSc2nnc(C)s2)CC1,-3%
O=C1NCCc2c(OCc3ccc(Br)cc3)cccc21,-16%
Cc1ccc(CNC(=O)CSc2nnc3[nH]c(=O)c(C)c(C)n23)cc1,-6%
CC(=O)Nc1ccc2nc(NC(=O)c3ccc(C#N)cc3)sc2c1,-1%
CCCCc1ccc(Nc2ncnc3nc[nH]c23)cc1,82%
COc1ccc2o/c(=N\c3sc4c(c3C(N)=O)CCCC4)c(C(N)=O)cc2c1,-5%
CC(=O)N1CCc2c(sc(NC(=O)CN3C(=O)CCC3=O)c2-c2nc3ccccc3s2)C1,45%
COc1ccc(C(=O)Nc2c(N)nc(SCC(=O)NC3CCCCC3)[nH]c2=O)cc1OC,-8%
COc1cccc(NC(=O)CSc2nccn(-c3ccc(OC)c(OC)c3)c2=O)c1,-7%
O=C(CCCN1C(=O)S/C(=C/c2ccccc2)C1=S)Nc1ccc(C(=O)O)cc1,-3%
C=CCc1c(C)nc(-c2ccccc2)nc1Nc1ccc(C(=O)O)cc1,10%
COc1ccc(-c2nnc(NC(=O)c3ccc(Cl)cc3Cl)o2)cc1,14µg/mL*
Cc1cccc(NC(=O)CSc2nc3c(oc4ccccc43)c(=O)n2Cc2ccccc2)c1C,-14%
COc1ccc(C(=O)Nc2c(N)nc(SCC(=O)Nc3nc4ccc(C)cc4s3)[nH]c2=O)cc1,7%
COc1ccc(C2=NN(C(=O)CCC(=O)O)C(c3ccccc3Cl)C2)cc1OC (stereo not drawn),-18%
NC(=O)c1c(NC(=O)c2cccc(F)c2)sc2c1CCCCC2,52%
CCOC(=O)C1CCN(C(c2ccco2)c2sc3nc(C)nn3c2O)CC1 (stereo not drawn),-2%
O=C(NC1CC(=O)N(c2cccc(F)c2)C1)c1cccc(Br)c1 (stereo not drawn),5%
CCCc1cc(=O)[nH]c2nnc(SCC(=O)NCCc3ccc(OC)c(OC)c3)n12,-4%
CCCc1nc(SCC(=O)Nc2ccc(C)cc2)c2c(=O)n(C)c(=O)n(C)c2n1,2%
Cc1ccc(N2C(=O)C3N=NN(CC(=O)Nc4cccc(Cl)c4C)C3C2=O)cc1Cl (stereo not drawn),-12%
COc1ccc(Cc2nnc(NCCc3ccccc3)[nH]c2=O)cc1,-10%
Cc1ccc(NC(=O)CS(=O)(=O)c2cn(Cc3ccc(F)cc3)c3ccccc23)c(C)c1,7%
NC(=O)c1nc(-c2ccc(OCc3ccccc3)cc2)nc2c1[nH]c(=O)n2-c1ccccc1F,-2%
Cc1cc(C)cc(-n2nnc3c(=O)n(Cc4ccc(F)cc4)cnc32)c1,4%
Cc1ccc(-n2nnnc2CNS(=O)(=O)c2ccc3ccccc3c2)cc1C,?
Cc1ccc(C2C(C(=O)c3ccc(C)o3)=C(O)C(=O)N2c2cc(C)on2)cc1 (stereo not drawn),-5%
COc1ccc(N2CC(NC(=O)c3ccccc3C(F)(F)F)CC2=O)cc1 (stereo not drawn),6%
NC(=O)c1nc(-c2cccc(C(F)(F)F)c2)nc2c1[nH]c(=O)n2-c1ccccc1F,-1%
Cc1cc(Nc2ccc(F)cc2)n2ncc(-c3ccccc3)c2n1,2%
Cn1c(=O)c2c(SCC(=O)Nc3ccc(F)cc3F)nc(-c3cccs3)nc2n(C)c1=O,1%
COc1ccc(CCNc2oc(COc3ccc(Br)cc3)nc2C#N)cc1OC,-7%
COc1cccc(NC(=O)CSc2ccc3nnc(-c4ccccc4)n3n2)c1,1%
Nc1ncnc(NCCc2ccc(Cl)cc2)c1[N+](=O)[O-],5%
Cc1ccc(CNC(=O)C(=O)NCC(c2ccco2)N2CCOCC2)cc1 (stereo not drawn),4%
Cc1ccc(C)c(-c2nnc(NC(=O)c3cccc4ccccc34)o2)c1,0.41µg/mL*
O=C(Nc1nnc(-c2ccccc2Cl)s1)c1cccc2ccccc12,6%
COc1ccc2c(c1)c(=O)c(S(=O)(=O)c1ccc(Cl)cc1)cn2Cc1ccccc1F,3%
O=C(Cn1ccn(-c2cccc3ccccc23)c(=O)c1=O)Nc1ccc(Cl)cc1,-6%
COc1cccc(N/C=C(\C#N)c2nc3ccccc3[nH]2)c1,5%
COc1ccc2nc(-c3ccc(OC)c(NC(=O)c4ccc(F)cc4F)c3)cn2n1,-12%
Cc1ccc2cc(CCNC(=O)c3ccc(S(=O)(=O)N4CCCC4)cc3)c(=O)[nH]c2c1C,-8%
COc1cccc(Nc2ncnc(N)c2[N+](=O)[O-])c1,4%
Cc1ccc(-n2ncc3c(=O)n(NC(=O)c4ccccc4C(F)(F)F)cnc32)cc1,4%
Cc1cc(NC(=O)CSc2nc3c(c(=O)n2-c2ccccc2)SCC3)no1,-10%
O=C1N=c2ccc(Br)cc2=C1c1sc(=S)n(NC(=O)c2ccncc2)c1O,-5%
O=C1C(Cl)=C(NCc2ccco2)C(=O)N1c1cccc(Cl)c1Cl,-11%
O=C(CSc1nnc2ccc(-c3ccccn3)nn12)Nc1ccc(C(F)(F)F)cc1,-8%

Already shown: four of the compounds above.
SMILES,Mtb growth
COc1c(Sc2ccc([N+](=O)[O-])cc2)c(C)nn1-c1ccccc1,78%
COc1ccc(-n2c(=O)[nH]c3c(C(N)=O)nc(-c4ccc(F)cc4)nc32)cc1,0%
COc1cccc(NC(=O)CSc2nnc3ccccn23)c1,-15%
Cn1c(=O)c2c(ncn2CC(=O)c2ccc([N+](=O)[O-])cc2)n(C)c1=O,-16%

Next structures.
SMILES,Mtb growth
O=C(CSc1ncnc2c1cnn2-c1ccccc1)NCc1ccc2c(c1)OCO2,-15%
CCCn1c(N2CCNCC2)nc2c1c(=O)[nH]c(=O)n2C,12%
O=C(CCCCCN1C(=O)c2ccccc2C1=O)NCc1ccco1,2%
COc1cc(C2C3=C(CC(C)(C)CC3=O)Nc3c2c(=O)[nH]c(=O)n3Cc2ccccc2)ccc1O (stereo not drawn),-3%
Cc1c(Cc2ccc3c(c2)OCO3)sc(NC(=O)Cc2cccc3ccccc23)c1C#N,8%
O=C(CSc1nnc2ccc(-c3ccco3)nn12)c1ccc(F)cc1,-4%
NC(=O)c1nc(-c2ccc(Cl)cc2Cl)nc2c1[nH]c(=O)n2-c1ccc2c(c1)OCO2,-17%
CNC(=O)c1ccsc1NC(=O)c1ccc(S(=O)(=O)N2CCCCCC2)cc1,-5%
CC(=O)N1CCc2c(sc(NC(=O)c3ccccc3C)c2-c2nc3ccccc3s2)C1,0%
N#Cc1c(NC(=O)c2ccc(C(=O)c3ccccc3)cc2)sc2c1CCN(Cc1ccccc1)C2,3%
COc1ccccc1-n1c(=O)[nH]c2c(C(N)=O)nc(-c3ccc(F)c(F)c3)nc21,-2%
Cc1ccc2c(c1)NC(=O)c1cc(NS(=O)(=O)CCc3ccccc3)ccc1O2,65%
O=C(COc1ccc(Cl)cc1)Nc1nnc(-c2ccc(F)cc2)s1,11%
O=C(Nc1nnc(-c2ccc(Cl)cc2)s1)c1ccc(F)cc1,-1%
CC1C(=O)N2CCCc3cc(S(=O)(=O)Nc4ccc(F)cc4F)cc1c32 (stereo not drawn),-4%
Nc1nc(SCC(=O)Nc2ccccc2C(F)(F)F)[nH]c(=O)c1NC(=O)c1ccccc1,-10%
Cc1ccc2cc(CCNC(=O)c3ccc(S(=O)(=O)N4CCCCC4)cc3)c(=O)[nH]c2c1C,15%
COc1cc(C2NC(=O)NC(O)(C(F)(F)F)C2C(=O)c2ccccc2)ccc1O (stereo not drawn),-9%
CCSc1ccc(CC(=O)Nc2sc3c(c2C#N)CCN(C(C)=O)C3)cc1,-3%
COc1ccc(NC(=O)c2ccc(-n3nncc3C)cc2)cc1,6%
COc1ccc(Cc2cnc(NC(=O)/C=C/c3ccc([N+](=O)[O-])cc3)s2)cc1,-15%
COc1cc(OC)cc(C(=O)Nc2nc(-c3ccc4ccccc4c3)cs2)c1,39%
CCc1nc(SCC(=O)c2ccc(Br)cc2)n[nH]1,8%
O=C(CSc1cn(Cc2cccc(F)c2)c2ccccc12)NCc1ccco1,5%
COCCn1c(SCC(=O)Nc2nnc(C)s2)nc2c([nH]c3ccccc32)c1=O,1%
O=C(CSc1ccc2nnc(-c3cccnc3)n2n1)Nc1cccc([N+](=O)[O-])c1,2%
O=C(COc1ccccc1)Nc1ccc(-c2nc3cccnc3s2)cc1,10%
COc1cccc(NC(=O)c2ccc(COc3cccc(C)c3)o2)c1,12µg/mL*
O=[N+]([O-])c1cc(S(=O)(=O)C(F)(F)C(F)(F)F)ccc1Cl,30%
Cc1ccc2cc(CCNC(=O)CCc3ccccc3)c(=O)[nH]c2c1,98%
CCOC(=O)c1nn(-c2ccccc2)c(=O)c2c(NC(=O)c3cc(OC)cc(OC)c3)scc12,-21%
O=C(c1ccc(Br)s1)N(Cc1cccnc1)c1nc2cc3c(cc2s1)OCO3,4%
Cc1ccc(-n2nnc3c(=O)n(CC(=O)Nc4ccc(F)cc4F)cnc32)cc1C,6%
O=C1NC(=S)N/C1=C/c1cccc(C(=O)O)c1,-3%
Nc1ccc(Cc2ccc(N)c([N+](=O)[O-])c2)cc1[N+](=O)[O-],15%
O=C(O)c1c(Br)cnc2nc[nH]c12,-4%
COc1ccccc1-c1nnc(NC(=O)c2ccc3c(c2)OCO3)s1,-2%
COc1ccc2nc(-c3ccc(NC(=O)c4ccc(C(F)(F)F)cc4)cc3)cn2n1,3%
COc1ccc(CC(=O)Nc2cc(-c3cn4nc(OC)ccc4n3)ccc2F)cc1,-8%
O=C(Nc1ccc2c(c1)OCCO2)c1c[nH]c(=O)n(-c2ccc(F)cc2)c1=O,1%
COc1cccc(-n2c(=O)[nH]c3c(C(N)=O)nc(-c4ccc(C(C)C)cc4)nc32)c1,6%
Cc1cc2cc(CCNC(=O)c3ccccc3[N+](=O)[O-])c(=O)[nH]c2cc1C,-9%
CCOC(=O)c1cnc2ccc(OCC)cc2c1Nc1cccc2ccccc12,2%
CC(C)CCn1c(N2CCN(CC(N)=O)CC2)nc2c1c(=O)[nH]c(=O)n2C,12%
Cn1ncc2c(=O)n(Cc3ccc(F)cc3Cl)cnc21,-5%
O=c1[nH]c(SCc2cccc3ccccc23)nc2[nH]ncc12,-7%
COc1ccc(CC(=O)NCc2nnc(SCC(=O)Nc3nnc(C)s3)n2-c2ccc(F)cc2)cc1,-8%
Cc1ccc(C(=O)Nc2ncc(S(=O)(=O)c3ccc([N+](=O)[O-])cc3)s2)cc1C,-9%
COc1cccc2cc(-c3cc(=O)oc4cc(OCC(N)=O)ccc34)c(=O)oc12,-17%
COc1ccc(CC2SC(=Nc3ccc(Br)cc3)NC2=O)cc1 (stereo not drawn),15%
O=C(Nc1nc(-c2ccccc2)c(-c2ccccc2)s1)c1ccc(Cl)cc1,54%
Cc1ccc(C)c2[nH]c(=O)c(CCNC(=O)c3ccc(S(=O)(=O)N4CCCC4)cc3)cc12,1%
COc1ccccc1NC(=O)c1sc2ncn(Cc3ccc(C)cc3)c(=O)c2c1C,-1%
O=C(Nc1c(C(=O)Nc2ccc(F)c(Cl)c2)oc2ccccc12)c1ccc(F)c(F)c1,-1%
COc1cccc(NS(=O)(=O)c2cc3c4c(c2)CCN4C(=O)CC3)c1,11%
COc1ccc(NC(=O)CSc2nnc(NC(=O)NC(C)(C)C)s2)cc1,-15%
CN1C(=O)CCc2cc(NC(=O)c3ccc(Cl)cc3Cl)ccc21,20%
COc1ccc(N2CC(NC(=O)Nc3ccc(Cl)cc3)CC2=O)cc1OC (stereo not drawn),3%
